HSV replic up = increases HSV replication in cells; HSV replication augmentation in cells, fold increase; maximum fold increase; 0.005% of 220,000 active;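 active = peak rise of 1.5-fold or more in the series; tested in PC3 cells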;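 also: first round at 10 µM; read as green reporter fluorescence; hits show the peak of a series up to 25 µM; 1 = signal of infected wells without compound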
GALR2 agonist = activates the human galanin receptor 2. O43603. GALR2-expressing cells, agonist activation read-out. activation, %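 (tested at 5 µM)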. 0.48% of 140,000 active. AID 803;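 active = above mean plus 3 SD of all compounds, about 5% in these data, not always enough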;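 also: 0% = vehicle buffer wells and 100% = reference agonist at full effect; tested in CHO reporter cells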
Target sequence (O43603 whole entry, looked up): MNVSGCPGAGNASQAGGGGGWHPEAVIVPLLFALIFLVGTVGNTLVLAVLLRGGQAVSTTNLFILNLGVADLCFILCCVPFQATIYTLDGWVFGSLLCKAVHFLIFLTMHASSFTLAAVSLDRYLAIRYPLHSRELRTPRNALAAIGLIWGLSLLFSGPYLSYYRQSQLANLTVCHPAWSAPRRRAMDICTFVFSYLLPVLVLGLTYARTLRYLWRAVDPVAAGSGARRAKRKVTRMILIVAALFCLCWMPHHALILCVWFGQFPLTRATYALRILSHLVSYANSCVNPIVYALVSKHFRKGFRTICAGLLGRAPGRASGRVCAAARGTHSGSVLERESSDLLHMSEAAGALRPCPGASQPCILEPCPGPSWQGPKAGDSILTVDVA
RGS16-Gao HTS = modulates binding between human RGS16 and Galphao. bead-based flow cytometry RGS16-Galphao binding, fluorescence; actives lie on both sides. binding response (% of control), % at 10 µM. 0.38% of 220,000 active;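 active = below 25% or above 175%, edge rows of some plates excepted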;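 also: Galphao activated by GDP with aluminum fluoride before binding; 100% = wells without compound and 0% = beads without RGS; some results beyond the cut were filed as inactive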
Target sequence (O15492 whole entry, looked up): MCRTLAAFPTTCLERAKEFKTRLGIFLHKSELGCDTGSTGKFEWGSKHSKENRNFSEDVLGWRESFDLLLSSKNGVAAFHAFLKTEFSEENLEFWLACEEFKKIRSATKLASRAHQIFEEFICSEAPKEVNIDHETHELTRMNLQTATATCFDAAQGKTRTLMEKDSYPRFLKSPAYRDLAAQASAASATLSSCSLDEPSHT
Target sequence (P09471 whole entry, looked up): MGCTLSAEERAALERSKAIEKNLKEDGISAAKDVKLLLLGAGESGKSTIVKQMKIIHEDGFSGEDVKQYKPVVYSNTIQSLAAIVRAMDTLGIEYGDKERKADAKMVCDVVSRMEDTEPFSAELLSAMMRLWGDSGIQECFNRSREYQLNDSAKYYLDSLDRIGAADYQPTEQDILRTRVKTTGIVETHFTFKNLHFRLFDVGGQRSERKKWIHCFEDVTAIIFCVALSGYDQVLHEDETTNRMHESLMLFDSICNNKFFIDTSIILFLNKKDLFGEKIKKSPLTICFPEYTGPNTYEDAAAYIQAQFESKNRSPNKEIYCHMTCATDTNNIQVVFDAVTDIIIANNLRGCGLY
PKD1 inh = blocks activity of human protein kinase D1 | 0.056% of 200,000 active | inhibition, %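 (about 10 µM by stock and volumes)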 | PKD1 kinase fluorescence polarization assay | AID 797 | Q15139;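 active = inhibition of 50% or more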;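 also: controls were vehicle for no effect and a reference inhibitor for full effect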
Insulin prom inh = TRM-6 insulin promoter activity inhibition; inhibition, % at 2 µM; AID 1273; 0.9% of 130,000 active; TRM-6 cells (human fetal islet line), insulin promoter-eGFP reporter, imaging; reporter expression induced with tamoxifen;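 active = inhibition above the mean plus 3 SD, with well images judged a real hit on visual review, cut at about 60% in these data, passing the limit was not always enough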
Insulin prom inh cell count = also measured in Insulin prom inh; calls as there; normalized cell count, %; measured here: cell count, toxicity; reference of the scale not given here;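 cells exposed to compound for 48 h; stained nuclei by imaging scaled within each plate; lower means fewer cells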
HSV replic up primary fold = also measured in HSV replic up; calls as there; fold increase; compound at 10 µM; measured here: primary screen fold increase 10 uM; tested in PC3 cells;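 GFP signal in the first replicate; 1 = infected wells without compound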
Active calls of the source: *; i = inactive; . = no result given; & = joins results of further samples. An unsorted share of the library. Share with any hit: about 1.3%.

SMILES	HSV replic up	HSV replic up primary fold	GALR2 agonist	RGS16-Gao HTS	PKD1 inh	Insulin prom inh	Insulin prom inh cell count
O=C(NCCCn1ccnc1)c1ccc2c(c1)OCCO2	i	0.73	-1.5	100	6	.	.
CCOC(=O)CCc1c(C)nc(SCCCn2c(=O)[nH]c3ccccc32)c(C#N)c1C	i	1.1	-1.4	96	-1	9	136
Cc1cccc(NC(=O)N(Cc2cc3cc(C)ccc3[nH]c2=O)CC2COCCO2)c1 (stereo not given)	i	1.1	.	100	-9	-38	100
COc1cc(CC(=O)Nc2ccc3nc(SC)sc3c2)cc(OC)c1OC	i	0.87	.	101	.	.	.
CCC1C(=O)CC(c2ccco2)NC1c1ccco1 (stereo not given)	i	1	-1.4	108	-14	38	125
Cc1cccc(-n2ncc3c(N4CCC(C)CC4)ncnc32)c1	i	0.98	-2.7	98	3	.	.
CN(C)/C=C/C(=O)c1cnc2sccn2c1=O	i	0.92	.	105	2	.	.
O=C(c1cnn(C(=O)c2cccc(S(=O)(=O)N3CCOCC3)c2)c1)c1cc(Cl)cc(Cl)c1O	i	1.1	.	103	.	.	.
O=C(CNS(=O)(=O)c1cccs1)Nc1ccc2c(c1)OCCO2	i	0.88	-1.3	100	-4	.	.
O=S(=O)(c1ccc2c(c1)OCCO2)N1CCN(c2ncnc3sccc23)CC1	i	0.83	.	107	0	.	.
CCn1c(SCC(=O)N2c3ccccc3Sc3ccc(Cl)cc32)nc2c1c(=O)n(C)c(=O)n2C	.	.	-2.0	.	2	.	.
COc1ccc(C(=O)N2CCSC2=S)cc1OC	i	0.95	-0.3	106	-6	55	100
O=C(CSc1nc(-c2ccco2)cc(C(F)(F)F)n1)NCCCN1CCOCC1	i	1	.	97	1	.	.
CSc1nsc(SCC(=O)Nc2ccc(C(C)=O)cc2)n1	i	0.95	-3.3	96	0	47	97
Cc1cc(C)c(NC(=O)C2CCCN2CCO)c(C)c1 (stereo not given)	i	0.91	-1.9	92	5	9	51

Looked up above.
Under PKD1 inh, `O=C(CNS(=O)(=O)c1cccs1)Nc1ccc2c(c1)OCCO2` is listed with -4
Under Insulin prom inh cell count, `CCOC(=O)CCc1c(C)nc(SCCCn2c(=O)[nH]c3ccccc32)c(C#N)c1C` is listed with 136
Under RGS16-Gao HTS, `Cc1cccc(NC(=O)N(Cc2cc3cc(C)ccc3[nH]c2=O)CC2COCCO2)c1` (stereo not given) is listed with 100

(cont.)
SMILES	HSV replic up	HSV replic up primary fold	GALR2 agonist	RGS16-Gao HTS	PKD1 inh	Insulin prom inh	Insulin prom inh cell count
CCC(C)Oc1nc2c(c(=O)n(C)c(=O)n2C)n1C (stereo not given)	i	1.2	.	100	.	.	.
Cc1ccccc1CSCCNC(=O)c1ccc(Cl)c(S(=O)(=O)N2CCOCC2)c1	i	0.92	-2.5	100	-1	-61	64
Cc1c(Nc2nc(C(F)(F)F)nc3ccccc23)c(=O)n(-c2ccccc2)n1C	i	0.99	.	104	1	17	123
O=C(NCc1ccccn1)C1CCC(=O)N1C1CCCC1 (stereo not given)	i	0.97	-2.1	.	-13	.	.
COCC(=O)Nc1nnc(-c2cccs2)s1	i	0.99	-0.6	105	1	23	87
CCOC(=O)N1CCN(Cc2nc(N)nc(Nc3ccc(OCC)cc3)n2)CC1	i	0.84	-0.8	123	-3	-26	132
COc1ccc(-c2nnc(S/C(=C/c3ccc(Cl)cc3)C(=O)O)o2)cc1	i	0.91	.	99	2	40	148
Fc1ccc(NCc2cn3ccccc3n2)cc1	i	0.93	-0.9	99	-8	.	.
O=C1OC(c2ccc(F)cc2)=N/C1=C\c1ccc(Br)o1	i	1.1	.	99	6	-36	133
O=C(COc1ccc2oc3c(c2c1)CCCC3)Nc1ccccn1	i	0.93	-1.6	104	-15	-15	172
CCOC(=O)C1(Cc2ccccc2C(F)(F)F)CCN(C2CCC2)CC1	i	1.2	.	97	1	-6	100
Clc1ccccc1CN1CCN(/N=C/C=C/c2ccco2)CC1	i	1.1	.	99	.	.	.
N#Cc1ccccc1Cn1c(=O)n(Cc2ccc(C(=O)NCc3ccco3)cc2)c(=O)c2ccccc21	i	0.89	0.4	76	1	-42	113
CCOC(=O)c1nc(C)nc(Sc2n[nH]c(-c3ccc(C(C)(C)C)cc3)n2)c1C	i	1	.	107	.	.	.
c1ccc(-n2nnnc2Cc2nnnn2-c2ccccc2)cc1	i	1.1	.	121	-2	.	.
Nc1nc(Nc2cccc(C(F)(F)F)c2)nc(C(F)(F)F)n1	i	0.84	3.4	100	0	22	106
COc1ccc(NC(=O)CSc2nnc(C3CC3)n2-c2ccccc2)cc1	i	0.91	-1.3	102	-3	-18	73
Cc1ccc(C(=O)Nc2nnc(CC(=O)N/N=C/c3ccncc3)s2)cc1	i	0.93	.	107	0	.	.
CC1c2ccccc2N(NC(=O)Cc2ccccc2)C1C (stereo not given)	i	1	.	103	.	.	.
COc1ccc(NC(=O)N(C2CCCCC2)C(C)c2ccco2)c(OC)c1 (stereo not given)	i	0.95	0.6	99	-1	.	.
COc1cccc(Nc2nc(-c3cccs3)nc3ccccc23)c1	i	0.83	-0.6	85	23	7	49
CCOC(=O)N1CCN(C(c2ccc(Cl)cc2)c2sc3nc(C)nn3c2O)CC1 (stereo not given)	i	0.86	.	91	.	.	.
CCNc1nc(NCC)nc(SCCOC(=O)COc2ccc(Cl)cc2Cl)n1	i	1.3	-1.6	105	-8	-43	77
CC1=NN(C(=O)c2ccc(Cn3nc(C)cc3C)o2)C(O)(C(F)(F)F)C1 (stereo not given)	i	1	-2.2	103	-15	15	73
CC(=O)N/N=C(\C)CC(=O)Nc1cccc2c1CCCC2	i	0.96	.	128	-6	.	.
CCN(CC)c1nc2c(s1)C(=O)CC(C)(C)C2	i	1.1	-1.5	100	1	3	145
Cc1ccc(-n2ncc3c(Nc4c(C)n(C)n(-c5ccccc5)c4=O)ncnc32)c(C)c1	i	0.91	-1.5	113	-10	-16	54
Cc1ccc(S(=O)(=O)N2CCC(=O)N(CCOCc3cccc(Cl)c3)CC2)cc1	i	0.9	0.1	99	-1	0	104
CN1CCN(C(=S)c2ccc(-c3cccc(Cl)c3Cl)o2)CC1	i	0.96	0.0	107	-6	-8	152
CN1CCN(NC(=O)CN2C(=O)/C(=C/c3c(Cl)cccc3Cl)SC2=S)CC1	i	0.99	-3.5	100	-12	-20	100
N/C(=N\OC(=O)c1cc(Cl)ccc1Cl)c1ccncc1	i	1.2	.	102	0	-41	114
Cc1c(C(=O)O)c2cc(O)ccc2n1-c1ccccc1	i	0.85	-0.2	103	0	.	.
COCCCn1c(=N)c(C(=O)NCc2ccc3c(c2)OCO3)cc2c(=O)n3ccccc3nc21	i	0.78	0.4	101	-5	.	.
NC(=O)[C@@H]1CCCCNc2c(F)cc([N+](=O)[O-])cc2C(=O)N[C@@H](CC(=O)O)C(=O)NCC(=O)N1	i	0.94	-0.7	91	0	40	88
CCN(CC)C(=O)C1=C(C)NC(=S)NC1c1cn(-c2ccccc2)nc1-c1ccc(Cl)cc1 (stereo not given)	i	0.82	0.1	95	-6	14	75
Cn1c(=O)c2c(nc(Br)n2Cc2ccc3ccccc3c2)n(C)c1=O	i	0.76	0.3	104	22	.	.
CCn1c2ccccc2c2cc(NC(=O)c3ccc(Br)o3)ccc21	i	1.1	0.8	100	3	.	.
COc1ccc(C2C3C=CCC(c4cccc(-c5ccc(C)cc5)c4)C3C(=O)N2Cc2ccccc2)cc1Cl (stereo not given)	i	0.65	.	102	.	.	.
C=CCn1c(SCC(=O)Nc2cc3oc4ccccc4c3cc2OC)nnc1-c1cnccn1	i	0.7	0.1	99	-4	33	155
COc1ccc(N2C(=O)C3CC=C(Cl)CC3C2=O)cc1 (stereo not given)	i	0.98	-1.6	95	-7	-18	133
CCOC(=O)c1cc(NCc2cccs2)ccc1N1CCOCC1	i	0.98	.	107	-4	.	.
CS(=O)(=O)N1N=C(c2cccs2)CC1c1ccc(Cl)o1 (stereo not given)	i	1	.	103	-1	29	84
CCn1nc(C)c(C(=O)Nc2cc(Oc3cc(C)cc(C)c3)cc([N+](=O)[O-])c2)c1C	i	0.75	-0.2	95	8	-10	108
CCn1cc([N+](=O)[O-])c(C(=O)N2CCOCC2)n1	i	1	-0.2	104	-4	.	.
Cc1cc(C)c(C#N)c(N2CCOCC2)n1	i	0.98	-1.7	99	-11	41	118

For convenience, 4 of the compounds above:
SMILES	HSV replic up	HSV replic up primary fold	GALR2 agonist	RGS16-Gao HTS	PKD1 inh	Insulin prom inh	Insulin prom inh cell count
COc1ccc(N2C(=O)C3CC=C(Cl)CC3C2=O)cc1 (stereo not given)	i	0.98	-1.6	95	-7	-18	133
CCOC(=O)c1cc(NCc2cccs2)ccc1N1CCOCC1	i	0.98	.	107	-4	.	.
CS(=O)(=O)N1N=C(c2cccs2)CC1c1ccc(Cl)o1 (stereo not given)	i	1	.	103	-1	29	84
CCn1nc(C)c(C(=O)Nc2cc(Oc3cc(C)cc(C)c3)cc([N+](=O)[O-])c2)c1C	i	0.75	-0.2	95	8	-10	108

(cont.)
SMILES	HSV replic up	HSV replic up primary fold	GALR2 agonist	RGS16-Gao HTS	PKD1 inh	Insulin prom inh	Insulin prom inh cell count
CCOC(=O)c1ccc(S(=O)(=O)N2CCC(C(=O)OCC)CC2)cc1	i	0.81	-1.9	100	-4	-21	85
COc1ccccc1-c1ccc(=O)n(CC(=O)NCc2ccco2)n1	i	0.9	.	104	3	-50	97
O=S(=O)(c1ccc(S(=O)(=O)N2CCN(Cc3ccccc3)CC2)cc1)N1CCOCC1	i	0.85	-1.3	100	-3	6	106
O=S(=O)(c1cccs1)N1CCCc2cccc(O)c21	i	1	-1.1	99	4	4	119
CCN(CC)C(=O)c1cc(-c2ccccc2OC)on1	i	1.2	4.1	105	4	-19	86
Cc1ccccc1NC(=O)CN1C(=O)S/C(=C\c2ccc(-c3cccc(C(=O)O)c3C)o2)C1=O	i	0.91	.	98	2	.	.
CC1(C)CC(=O)C(C=NCCN2CCN(C(=S)Nc3ccccc3)CC2)=C(O)C1	i	0.91	-0.7	114	-5	27	128
COc1ccc(CC(=O)Nc2ccccc2Oc2ccccc2)cc1	i	1	.	84	-8	.	.
CCCc1nc2c(C)ccc(C)c2c(N)c1CC	i	1.2	-1.4	104	1	19	76
O=C(CSc1nnc(-c2cnccn2)n1Cc1ccco1)c1ccc(Cl)cc1	i	0.87	-2.3	94	-4	-11	115
Cc1cc(C)c(OCC(O)CNC(C)(C)C)c(C)c1 (stereo not given)	i	0.88	.	101	6	-11	55
CC1CC(C)CN(C(=O)CSC2=Nc3ccccc3C3=NC(Cc4c[nH]c5ccccc45)C(=O)N23)C1 (stereo not given)	i	0.81	-2.7	103	-6	-19	88
CCOC(=O)c1ccc(S(=O)(=O)n2c(CN3CCCCC3)nc3ccccc32)cc1	i	0.87	-1.5	98	4	48	114
CC(=O)N(NC(N)=O)C(C)CC(=O)C1C(C)C=CCC1(C)C (stereo not given)	i	0.97	.	100	.	.	.
CC1CC=C2C(C#N)=C(N)C(C#N)(C#N)C(c3cccs3)C2C1 (stereo not given)	.	.	-0.6	101	-10	-29	80
O=C(CN1CCOCC1)Nc1c(C(=O)C2CC2)oc2ccccc12	i	0.9	.	106	-3	0	115
O=C(Nc1ccc([N+](=O)[O-])cc1)c1nc[nH]c1C(=O)NC1CCCCC1	i	0.51	1.1	94	-1	11	102
CCN(CC)CCOC(=O)c1c(C)n(C)c2ccc(OC)cc12	i	0.96	-1.8	98	-14	.	.
CC(C)CCNCC1OCc2ccccc2CO1	i	0.93	-0.2	106	0	10	103
COc1ccc(C)cc1NS(=O)(=O)c1ccc(NS(=O)(=O)c2ccc(NC(C)=O)cc2)cc1	i	0.81	-0.3	17	-8	-25	104
COc1cc(NC(=O)c2c(F)cccc2F)c(Cl)cc1Cl	i	0.75	.	95	-3	.	.
C=C(C)c1cccc(C(C)(C)NC(=O)Nc2ccc(C(N)=O)cc2)c1	i	1	.	107	-1	.	.
Cc1ccnc2c1NC(=O)c1cccnc1N2C1CC1	i	0.46	-0.2	103&94	1	.	.
COc1ccccc1CC(=O)N1CCCC(CCC(=O)NCc2ccccc2F)C1 (stereo not given)	i	0.99	.	102	.	.	.
COC(C/C=C/[C@H](O)COCc1ccccc1)OC	i	1.1	.	99	.	.	.
COc1ccc(CNC(=O)C2CCCN2C(=O)NC2CCCCC2)cc1 (stereo not given)	i	0.95	-1.9	98	13	-33	198
COc1ccc(/C=N/NC(=O)Nc2cccc3nsnc23)cc1OC	i	0.92	1.5	91	-3	48	73
COC(=O)COc1ccc(S(=O)(=O)NCCC2=CCCCC2)cc1C	i	1	-1.0	97	-9	-9	104
CCc1ccc(N(C(=O)c2csnn2)C(C(=O)NC(C)(C)CC)c2ccccn2)cc1 (stereo not given)	i	0.91	.	116	2	-21	194
